FGF22 binding: shifts melting point of recombinant human FGF22. Q9HCT0. recombinant FGF22 thermal shift, SYPRO orange fluorescence; percent of sucrose octasulfate shift, DMSO zero. calls only at 9.99 µM. hit rate 1.5% among 340,000;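 active = melting point raised past a set limit in the mean and every replicate; inconclusive = no clear call; three in four hits are not shown here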
Target sequence (Q9HCT0 whole entry, looked up): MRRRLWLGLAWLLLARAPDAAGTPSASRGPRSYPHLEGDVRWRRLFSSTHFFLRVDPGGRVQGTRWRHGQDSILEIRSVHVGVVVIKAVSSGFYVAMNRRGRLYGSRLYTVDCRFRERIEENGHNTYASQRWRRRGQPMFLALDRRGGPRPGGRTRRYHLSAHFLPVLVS
Beta apoptosis: blocks beta cell apoptosis. INS-1E cytokine-induced death, ATP luminescence, 48 h; percent of positive-control rescue, neutral wells zero. protection from apoptosis, % (test concentration not listed). hit rate 0.8% among 300,000. AID 435005;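 active = all replicates at 75% or more, or half of them and the mean; inconclusive = half reach 75% but not the mean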;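 note: 0% = cytokine-treated negative control wells and 100% = positive control rescue; higher means more ATP so stronger rescue from cytokine killing; wells of about 40 µL received 100 nL stock; the first replicate is given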
AF4-AF9 inh: blocks AF4 peptide binding to human AF9 | P42568 | AlphaScreen, biotin-AF4 peptide binding to FLAG-AF9 | inhibition, % at 10 µM | hit rate 0.47% among 350,000;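 active = every replicate reaching a set inhibition limit, whatever the replicate mean, cut at about 25% in these data; inconclusive = mean inhibition reaches that limit but some replicates miss it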;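 note: 0% = plate neutral control median and 100% = total signal loss; the record names both 10 and 1 µM as test concentration; the first replicate is given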
Target sequence (P42568 whole entry, looked up): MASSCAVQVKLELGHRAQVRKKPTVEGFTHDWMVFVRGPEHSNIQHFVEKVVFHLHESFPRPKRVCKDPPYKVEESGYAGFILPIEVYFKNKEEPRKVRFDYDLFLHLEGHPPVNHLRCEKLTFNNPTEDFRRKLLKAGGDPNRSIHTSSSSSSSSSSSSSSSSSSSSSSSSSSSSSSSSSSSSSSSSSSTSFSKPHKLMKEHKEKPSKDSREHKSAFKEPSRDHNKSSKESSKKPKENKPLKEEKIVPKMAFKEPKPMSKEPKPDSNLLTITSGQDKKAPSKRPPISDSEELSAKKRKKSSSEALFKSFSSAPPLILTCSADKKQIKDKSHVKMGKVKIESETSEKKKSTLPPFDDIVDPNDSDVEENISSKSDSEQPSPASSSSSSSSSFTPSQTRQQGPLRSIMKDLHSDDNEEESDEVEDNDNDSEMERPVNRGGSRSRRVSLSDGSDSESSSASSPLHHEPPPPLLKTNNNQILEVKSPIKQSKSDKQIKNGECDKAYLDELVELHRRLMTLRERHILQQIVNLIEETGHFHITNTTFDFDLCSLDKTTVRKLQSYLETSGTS
UCH37 inh: blocks the human deubiquitinase UCH37. inhibition, % (concentration not given with the values). Q9Y5K5. purified proteasome/UCH37, Ub-AMC cleavage fluorescence. hit rate 0.33% among 330,000;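 active = mean of two replicates above 20%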;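 note: 0% = compound-free wells with enzyme and 100% = wells lacking proteasome; stock transfer was 100 nL into about 20 µL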
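Material: human UCH37 enzyme supplied as purified proteasome complex. Measure: % inhibition of Ub-AMC cleavage fluorescence. Medium: pH 7.4 Tris-HCl (50 mM) with ovalbumin, ATP-MgCl2, DTT. Times: 30 min preincubation with enzyme, 25 min cleavage at room temperature. Detection: AMC fluorescence intensity at 355/460 nm.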
Ecoli growth: inhibitors of Escherichia coli growth; OD600 absorbance (concentration not given with the values); OD600, 23 h; stronger effect = lower value; hit rate 0.21% among 330,000;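 active = OD600 absorbance below the run mean of sample wells minus 3.6 SD, in any replicate, cut at about 0.56 in these data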;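 note: stock transfer was 300 nL into about 60 µL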
Ecoli rRNA inh: selective bacterial rRNA inhibition in E. coli; GFP signal change (wild-type ribosome), % (no concentration beside the values); hit rate 1.6% among 350,000; E. coli WT GFP vs humanized-ribosome RFP mutants, fluorescence, 24 h; stronger effect = lower value; DMSO median 0, no signal -100;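 active = significant combined selectivity score with lowered wild-type GFP, culture density cut under 30%, mutant RFP and density less affected; inactive = any of these conditions unmet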; note: one replicate is shown; some compounds called inactive have numbers as strong as hits
Bfl-1 A1 inh: inhibitors of the anti-apoptotic protein A1, read as caspase activation; MEF A1-2A-BIM cells, Caspase-Glo 3/7 luminescence, 3 h; percent of clofoctol response, vehicle zero; caspase activation, % (concentration not given with the values); hit rate 0.066% among 330,000;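 active = over half of replicate activation scores above 10%, or exactly half above 10 with the replicate mean above 10; inconclusive = replicate mean below 10 yet half the replicates above 10; inactive = over half of replicates below 10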;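 note: wells of about 30 µL received 50 nL stock; many hits fall short of the cut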
T cruzi inh: T. cruzi replication inhibition; AID 1885; T. cruzi beta-gal in NIH3T3, luminescence, 90 h; inhibition, % (concentration not given with the values); hit rate 1.4% among 300,000;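 active = mean inhibition across valid replicates above about 55%, limit read from the data; inconclusive = mean below that limit but half or more replicates reach it; inactive = mean below it, under half of replicates reach it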;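 note: signal also drops with host cell toxicity which is not excluded here; 0% = plate median of DMSO wells and 100% = zero luminescence signal; higher percent means less beta-gal luminescence so fewer parasites; stock transfer was 50 nL into about 50 µL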
Ecoli rRNA inh OD600: also measured in Ecoli rRNA inh; calls as there; OD600 change, %; measured here: OD600 growth;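 optical density of the mix in the first replicate; 0 = DMSO median and -100 = no signal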
Ecoli rRNA inh RFP: further read-out of Ecoli rRNA inh, marked with its call; RFP signal change, %; measured here: RFP humanized mutant strains;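 first replicate; 0 = DMSO median and -100 = no signal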
* marks the source's active call; other numbers are inactive results; i = inactive; u = inconclusive; x = not tested or not shown; + = active, no number; & = joins results of further samples.

The line under a structure holds: Bfl-1 A1 inh	Beta apoptosis	T cruzi inh	Ecoli growth	UCH37 inh	AF4-AF9 inh	Ecoli rRNA inh	Ecoli rRNA inh OD600	Ecoli rRNA inh RFP	FGF22 binding
1. O=C(Nc1nnc(-c2ccccc2)o1)c1ccc(Cl)cc1
    0.0	-2	-2	0.33*	2.9	x	x	x	x	x
2. CC(=O)Nc1ccc(S(=O)(=O)Nc2ccc3c(c2)OCO3)cc1
    0.7	-6	-1	0.71	4.0	4.1	7	15	1.7	i
3. O=S(=O)(NN1CCOCC1)c1cc(Cl)cc(Cl)c1O
    0.1	-2	-8	0.7	2.6	-9.2	3	11	-2.2	i
4. CC1CCc2[nH]c3ccc(C(=O)N4CCCC(C(F)(F)F)C4)cc3c2C1 (centres undefined)
    0.1	6	26	0.71	-0.1	6.3	3	6	0.5	i
5. CCSc1nc2nccnc2c(=O)[nH]1
    x	x	x	0.67	-66	-1.7	-2	8	-2.9	i
6. CCCn1c2ccc(F)cc2c2nnc(NN)nc21
    1.0	8	-11	0.69	4.7	-2.1	-1	-5	7.4	i
7. Cc1cccc(N2CCN(S(=O)(=O)c3ccc(-c4coc(C)n4)cc3)CC2C)c1 (centres undefined)
    -1.3	0	-5	0.67	0.9	5.4	-5	-5	1.5	i
8. CCOCCCNC(=S)NCCCNc1nc2c(C)cc(C)cc2cc1C#N
    x	x	x	0.68	-32	-14	18	2	-7.4	i
9. CC1=NN(C(=S)Nc2ccccc2)C(c2ccccc2)C1 (centres undefined)
    -2.4	0	12	0.69	3.8	x	x	x	x	x
10. Cn1nc(C(=O)OCC(=O)N(Cc2ccccc2)C(C)(C)C)c2ccccc2c1=O
    x	x	x	0.69	5.1	0.3	-3	7	2.3	i
11. CCCCn1c(SCC(=O)Nc2nc(C)cs2)nnc1-c1cccnc1
    x	x	-6	0.71	-0.7	5.3	-3	-3	-4.2	i
12. O=c1ccc(S(=O)(=O)N2CCCC2)cn1Cc1ccc(F)cc1
    0.3	-1	x	0.69	1.8	-5.7	x	x	x	i
13. CC(Sc1nnc(-c2cc3ccccc3o2)n1-c1ccccc1)C(=O)O (centres undefined)
    0.1	2	-11	0.76	2.0	x	x	x	x	x
14. COc1ccc(C2CC(c3cccs3)=NN2C(=O)CSc2nncs2)cc1OC (centres undefined)
    -0.5	-7	2	0.67	0.3	3.6	-22	-26	-2.1	i
15. Cc1ccc2cc(CCNC(=O)C(=O)c3c(C)[nH]c4ccccc34)c(=O)[nH]c2c1
    1.1	-5	1	0.64	3.3	-0.7	-6	-3	-1.2	i
16. Cc1ccc(C(=O)C(OC(=O)COc2ccccc2C)c2ccccc2)cc1 (centres undefined)
    -0.9	4	-15	0.68	1.2	x	x	x	x	x
17. N/C(=N\OC(=O)CCc1ccccc1)c1cccnc1
    1.9	-1	-14	0.73	-0.7	-0.6	6	13	3.2	i
18. Cc1oc(C)c(C(=O)Nc2ccc(CC(=O)O)cc2)c1C(=O)Nc1ccc(CC(=O)O)cc1
    1.6	-2	-3	0.75	0.8	x	x	x	x	x
19. CCCN(CCC)c1nc(NC2CCN(C(=O)OCC)CC2)nc(OC)n1
    0.4	6	9	0.69	3.0	x	x	x	x	x
20. Cn1c(=S)c2[nH]c(SCCN3CCCC3)nc2n(C)c1=O
    0.4	0	-16	x	x	-1.8	5	12	-0.8	i

An excerpt from above, showing only Ecoli rRNA inh RFP, AF4-AF9 inh and UCH37 inh.
#	smiles	Ecoli rRNA inh RFP	AF4-AF9 inh	UCH37 inh
13	CC(Sc1nnc(-c2cc3ccccc3o2)n1-c1ccccc1)C(=O)O (centres undefined)	x	x	2.0
14	COc1ccc(C2CC(c3cccs3)=NN2C(=O)CSc2nncs2)cc1OC (centres undefined)	-2.1	3.6	0.3
15	Cc1ccc2cc(CCNC(=O)C(=O)c3c(C)[nH]c4ccccc34)c(=O)[nH]c2c1	-1.2	-0.7	3.3
16	Cc1ccc(C(=O)C(OC(=O)COc2ccccc2C)c2ccccc2)cc1 (centres undefined)	x	x	1.2

(next part)
The line under a structure holds: Bfl-1 A1 inh	Beta apoptosis	T cruzi inh	Ecoli growth	UCH37 inh	AF4-AF9 inh	Ecoli rRNA inh	Ecoli rRNA inh OD600	Ecoli rRNA inh RFP	FGF22 binding
21. S=C1NCN(Cc2ccccc2)CN1C1CCCCC1
    0.1	9	-29	0.68	2.5	-0.9	-5	-9	-2.1	i
22. CCOc1ccc(CC(=NCCc2ccccc2)C2=C(O)CC(C)(C)CC2=O)cc1OCC
    0.1	0	10	0.65	5.2	x	x	x	x	x
23. O=C(NCCCO)/C(=C/c1ccc(-c2cccc([N+](=O)[O-])c2)o1)NC(=O)c1ccccc1
    0.3	0	4	0.69	22*	2.2	0	-1	-2.3	i
24. O=C(C1CCN(Cc2ccccc2O)CC1)N1CCN(Cc2ccc3c(c2)OCO3)CC1
    1.0	x	0	0.7	2.9	1.7	18	10	3.6	i
25. COCCn1c(SCC(=O)Nc2ccccc2F)nnc1-c1ccoc1C
    0.5	2	5	0.71	0.3	-0.2	4	4	-0.5	i
26. CC(=O)c1ccc(NC(=S)Nc2ccc3cn[nH]c3c2)cc1
    -0.2	-13	0	0.7	-0.2	-0.9	-18	-16	-5.9	+
27. COc1ccc(C(c2sc3nc(C)nn3c2O)N2CCC3(CC2)OCCO3)cc1 (centres undefined)
    -0.7	0	-4	0.71	6.6	x	x	x	x	x
28. O=C1OCCC1Sc1nnc(-c2ccco2)n1-c1ccccc1 (centres undefined)
    0.4	-3	-10	0.73	1.7	-0.9	12	8	-0.5	i
29. COc1cccc(C2CC(=O)Nc3c2c(=O)[nH]c2ncnn32)c1 (centres undefined)
    -0.5	-8	-8	0.71	-1.1	0.2	11	3	-0.3	i
30. Cc1cc(C)cc(OCC(=O)N2N=C(C(F)(F)F)CC2(O)C(C)(C)C)c1 (centres undefined)
    0.0	7	14	0.7	3.5	x	x	x	x	x
31. CCOC(=O)/C(C#N)=C\c1cc(OC)c(OC)cc1[N+](=O)[O-]
    0.5	-3	-6	0.68	4.5	3.0	9	1	15	x
32. O=C(CCCSc1ccccc1)Nc1cccc(CO)c1
    -0.9	0	-8	0.7	3.1	-3.9	7	-7	2.2	i
33. O=C(Nc1ccc(Cl)c(Cl)c1)c1cccnc1
    -2.0	x	-13	0.65	4.4	-6.3	-2	-13	-6.2	i
34. COc1cc(/C=N/NC(=O)c2ccc(NC(=O)C3CCCCC3)cc2)ccc1O
    -0.2	9	-9	x	x	-1.8	15	18	2.9	i
35. CCOc1ccc(-c2nnc(-c3ccc(OC)cc3)o2)cc1
    -0.4	-5	-21	0.76	-15	x	x	x	x	x
36. Cc1ccc(S(=O)(=O)N2CCCC(C(=O)NC3CCCC3)C2)cc1 (centres undefined)
    0.5	-4	0	0.66	0.7	-7.5	0	10	-1.5	i
37. CCCC(=O)O[C@]1(C(=O)CO)CC[C@H]2[C@@H]3CCC4=CC(=O)CC[C@]4(C)[C@H]3[C@@H](O)C[C@@]21C
    0.7	-6	3	x	0.7	-1.1&0.5	x	x	x	i
38. O=C1c2ccccc2C(=O)N1/N=C/c1ccc(Oc2ccc([N+](=O)[O-])cn2)cc1
    -0.1	-2	-14	x	x	0.3	2	2	-1.7	i
39. O=C(c1cccc(S(=O)(=O)N2CCN(c3ccccc3)CC2)c1)N1CC=C(c2ccccc2)CC1
    1.3	0	43	0.69	0.7	-13	1	-1	0.8	i
40. CC(=O)c1ccc(N=C2C(=O)Nc3ccccc32)cc1
    0.2	-7	-14	x	x	2.8	15	14	0.9	i

The final 2 compounds of the section above are carried over, then new ones follow:
The line under a structure holds: Bfl-1 A1 inh	Beta apoptosis	T cruzi inh	Ecoli growth	UCH37 inh	AF4-AF9 inh	Ecoli rRNA inh	Ecoli rRNA inh OD600	Ecoli rRNA inh RFP	FGF22 binding
39. O=C(c1cccc(S(=O)(=O)N2CCN(c3ccccc3)CC2)c1)N1CC=C(c2ccccc2)CC1
    1.3	0	43	0.69	0.7	-13	1	-1	0.8	i
40. CC(=O)c1ccc(N=C2C(=O)Nc3ccccc32)cc1
    0.2	-7	-14	x	x	2.8	15	14	0.9	i
41. O=C(C1=C(O)C(=O)N(CC2CCCO2)C1c1ccc(Cl)cc1Cl)c1ccco1 (centres undefined)
    -0.2	-2	-18	0.65	8.0	11	-3	-8	-0.3	i
42. CCOc1cc(C(=O)Nc2ccc(S(=O)(=O)NC3=NCCCCC3)cc2)cc(OCC)c1OCC
    0.1	1	1	0.66	1.5	0.0	2	-11	0.7	x
43. Cc1cccc(C(=O)N2CCC(=O)N(C(COCc3ccc(Cl)cc3)Cc3ccccc3)CC2)c1 (centres undefined)
    u	-3	32	0.62	3.0	1.9	-14	-21	-1.9	i
44. COc1ccccc1NC1=NC(C)(C)N=C(N)N1
    1.2	-9	4	0.71	2.9	x	x	x	x	x
45. CCN1CCN(c2ccc(S(=O)(=O)N3CCOCC3)cc2NC(=O)/C=C/c2ccc([N+](=O)[O-])cc2)CC1
    -0.6	6	27	0.7	5.2	12	1	6	-0.9	i
46. COc1ccc(OC)c(C2NC(=O)NC(C)=C2C(=O)OCc2ccccc2)c1 (centres undefined)
    1.0	0	4	0.7	-8.1	4.2	-1	1	0.0	i
47. O=C(COC(=O)c1cc(=O)c2ccccc2o1)NCC1CCCCC1
    0.1	0	-6	0.69	0.4	-2.0	7	1	6.5	i
48. CC1CCCC(C)N1C(=O)COC(=O)c1ccc[nH]c1=O (centres undefined)
    1.3	1	-3	0.77	3.5	x	x	x	x	x
49. COc1ccccc1NC(=O)CNC(c1ccccc1)c1ccccc1
    0.0	5	22	0.69	0.6	-1.5	-8	-37	-13	i
50. CC(C)Oc1ccc(CCN=C(N)N=C(N)N)cc1Cl
    1.2	-2	-7	0.68	2.4	1.3	10	3	3.1	i
51. CC(=O)c1cccc(S(=O)(=O)NCC(c2ccco2)N2CCCCC2)c1 (centres undefined)
    0.5	0	3	0.69	-2.8	x	x	x	x	x

The list is partial, so the mix of outcomes need not match the whole.
